Bioassay records deposited in PubChem BioAssay by several laboratories.
Sa ugtP lethal: growth inhibition of S. aureus ugtP deletion strain; S. aureus RN4220 ugtP deletion, OD600 growth, 16 h; some inactives read as strong as hits; 330,000 tested, 0.54% active; growth inhibition, % (no concentration beside the values); AID 1259309;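 active = z-score under -3 and OD600 up to 0.15 on both plates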;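 also: plate controls were untreated wells for no effect and antibiotic for full effect; wells of about 80 µL received 100 nL stock; the first replicate is given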
BJeLR viability: kills HRASV12-expressing BJeLR cells | BJeLR (HRASV12) viability, CellTiter-Glo ATP luminescence, 48 h; reference of the scale not given here | AID 1554 | inhibition, % (test concentration not listed) | 300,000 tested, 0.17% active;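 active = replicate mean above 50%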;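 also: 50 nL library stock added to about 25 µL; numbers are from one replicate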
Sa RN4220 lethal: S. aureus RN4220 growth inhibition. AID 1259311. 330,000 tested, 0.33% active. OD600, 16 h. inhibition, % (concentration not given with the values);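 active = z-score of -3 or lower and OD600 up to 0.18 on both plates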;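 also: plate controls were untreated cells for no effect and reference antibiotic for full effect; stock transfer was 100 nL into about 80 µL; one replicate is shown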
PrP UTR inh: inhibition of PrP 5' UTR reporter expression. 340,000 tested, 0.35% active. inhibition, % (test concentration not listed). AID 488862. cell-based PrP 5' UTR mRNA reporter, plate reader;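 active = every replicate at 50% or more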;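 also: 0 = median of the neutral control wells; tested in H4 reporter cells; numbers are from one replicate; inactives centre near -14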
Autofluor counter: counter-screen for toxin protease inhibitors: compound fluorescence; compound autofluorescence counterscreen, microsphere flow cytometry; hits give high values; fluorescence intensity (concentration not given with the values); 360,000 tested, 3.1% active; AID 624483;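 active = at least 3 SD above the mean of all compounds, about 16000 in these data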;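 also: 100 nL of 1 mM stock went into each well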
Mtb hypoxia rep: reduces hypoxia-regulated biosensor signal in M. tuberculosis; M. tuberculosis hypoxia-regulated fluorescent reporter, fluorescence; fluorescence inhibition, % (test concentration not listed); 300,000 tested, 0.1% active;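 active = 35 to 45% if threefold the growth effect, above 45% if 1.5-fold the growth effect; inactive = the rest, general growth blockers included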;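 also: wells of about 50 µL received 100 nL stock; 0% = vehicle wells and 100% = reference inhibitor wells; whole bacteria with a GFP reporter of the hypoxia response; strong numbers were not always called active; many hits fall short of the cut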
Mtb hypoxia rep growth: second read-out of Mtb hypoxia rep, no call of its own (marks repeat the call); growth inhibition, %; measured here: M. tuberculosis growth (absorbance);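 0% = vehicle and 100% = reference antibiotic; read after six days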
Active calls of the source: *; . = not tested or not shown.

Every second line gives: Sa ugtP lethal	BJeLR viability	Sa RN4220 lethal	PrP UTR inh	Autofluor counter	Mtb hypoxia rep	Mtb hypoxia rep growth
- CCOC(=O)N1CCN(C(=O)C2CCC(=O)N2C(C)C)CC1 (stereo unspecified)
→ 7	11	3.4	-8	22385*	3	3
- Nc1nnn(CC(=O)NN=Cc2cn[nH]c2-c2ccccc2)n1
→ 3	.	-0.1	.	.	4	-3
- OC(c1ccncc1)(c1ccc(F)cc1)c1ccc(F)cc1
→ 6	-16	7.0	-13	2203	7	2
- COc1cc(C=NNC(=O)c2ccncc2)ccc1OCC(=O)Nc1ccccc1
→ 1	.	2.5	.	.	.	.
- O=C(NC1(C(F)(F)F)NC(=O)N(Cc2ccccc2)C1=O)c1cccs1 (stereo unspecified)
→ 6	-8	-1.6	-14	9866	4	-3
- CN(c1ccccc1)S(=O)(=O)c1ccc(NC(=O)c2nc(S(C)(=O)=O)ncc2Cl)cc1
→ .	5	.	3	5222	.	.
- COc1cccc(C(=O)CSc2nc3ccccc3n2CC(=O)N(C(C)C)C(C)C)c1
→ -5	5	-2.3	-12	2595	10	1
- CC(Cn1nnc([N+](=O)[O-])n1)=NNC(=O)c1ccncc1
→ 6	.	15	.	.	.	.
- CCc1nc(CN2CCN(c3cc(C(F)(F)F)ccn3)CC2)c(C)[nH]1
→ 17	12	3.0	.	5952	-1	-6
- COc1cccc(COc2nc3c(c(=O)n(C)c(=O)n3C)n2C)c1
→ 2	31	1.6	-20	4601	.	.
- COc1ccc(S(=O)(=O)N2CCC(C(=O)NCC(c3cccs3)N(C)C)CC2)cc1 (stereo unspecified)
→ -9	3	5.2	-16	5279	6	12
- COc1ccc(OC)c(S(=O)(=O)N/N=C\c2c[nH]c3ccccc23)c1
→ .	10	.	-10	4506	.	.
- Cc1c(N=C2NC(=O)C(CC(=O)Nc3ccccc3)S2)c(=O)n(-c2ccccc2)n1C (stereo unspecified)
→ -4	-2	-13	-14	2919	8	0
- CC(=NNC(=S)NCc1ccccc1)c1ccc(C(C)(C)C)cc1
→ -6	.	5.3	.	.	5	8
- COc1cc(OC)cc(C(=O)NC2CC3CCC(C2)N3C)c1 (stereo unspecified)
→ 0	.	1.2	-5	4039	-1	0
- CCc1ccccc1NC(=S)N1CCN(c2ccccc2F)CC1
→ 9	-4	5.4	-4	3927	3	-9
- O=C(O)c1ccccc1C(=O)NCC(O)COc1ccc(Cl)cc1 (stereo unspecified)
→ -3	6	1.3	-4	6199	-5	7
- NC(=O)NCc1ccc(F)cc1
→ 0	-4	0.7	-12	3918	3	-5
- O=c1c2[nH]c3ccccc3c2nc2n1CCS2
→ 7	-8	0.7	-20	4462	9	9
- CC1(OC(=O)c2ccco2)C(=O)C=C2C=C(C3CC3)OC=C2C1=O (stereo unspecified)
→ 1	-11	7.9	-9	4118	7	3
- COc1ccccc1C1=NNC(=Nc2cccc(S(=O)(=O)N(C)C)c2)SC1
→ 8	-11	-3.0	-31	4167	-11	8
- Cc1cc(C)c2nc(NC(=O)c3ccc4c(=O)n5c(nc4c3)CCCCC5)sc2c1
→ -13	6	12	-5	2470	-5	7
- Cc1cc(C(=O)OCC(=O)Nc2cccc(F)c2)c(C)n1C1CC1
→ -1	.	5.1	-37	3769	8	11
- CCC(=O)N1CCC2(CC1)Oc1ccc(Cl)cc1C(=O)C21CC(c2ccccc2)=NO1 (stereo unspecified)
→ 5	4	5.7	-16	2844	2	11
- CCc1ccccc1NC(=O)CC1SC(=Nc2nccs2)N(CC)C1=O (stereo unspecified)
→ 8	.	4.6	.	.	2	-1
- O=C(Nc1ccc(OCc2ccccc2Cl)cc1)c1cccnc1
→ 2	-2	3.9	66*	.	4	-1
- O=C(CSc1ccc2nc(-c3ccccc3)cn2n1)NCC1CCCO1 (stereo unspecified)
→ 5	15	-2.2	-8	4454	1	-10
- Cc1cccn2c(CN[C@H]3CCCCNC3=O)c(C(=O)N3CCOCC3)nc12
→ 2	4	3.6	-7	4206	8	2
- COc1cccc(NC(=O)COC(=O)C2CCN(S(=O)(=O)c3cccs3)CC2)c1
→ 1	-2	3.3	-43	2566	11	2
- NC(N)=NN=Cc1ccc(OCc2ccccc2)cc1
→ -7	.	7.9	.	.	21	5
- Cc1cc(C)c(S(=O)(=O)N2CCCOC2CNC(=O)C(=O)NCc2ccco2)c(C)c1 (stereo unspecified)
→ 3	-4	5.8	-28	2488	13	1
- COc1ccc(NC(=O)Nc2nnc(-c3ccco3)s2)cc1
→ 3	5	-1.0	-120	5396	7	-5
- CC(=O)OCC(=O)C1=CCC2C3CCC4=CC(=O)C=CC4(C)C3(F)C(OC(C)=O)CC12C (stereo unspecified)
→ -2	3	1.9	6	2464	1	10
- c1ccc(CN2CN=C(Nc3nc4ccccc4s3)NC2)cc1
→ 7	-2	2.0	-17	16724*	-1	0
- Cc1noc(C)c1CSc1nnc(C)c(=O)[nH]1
→ -3	1	2.0	-4	8919	2	0
- Cc1ccc(C(=O)c2c3ccc(C(F)(F)F)cc3nn2CCC(N)=O)cc1
→ -1	2	5.2	-22	2818	0	-2
- CCOC(=O)c1ccc(S(=O)(=O)NC2CCCCCCC2)n1C
→ 7	8	2.7	-22	5267	.	.
- COc1ccc(CN(C)C(C)C(=O)Nc2cccc3ccccc23)cc1 (stereo unspecified)
→ 11	-5	3.6	-4	3522	8	11
- COc1ccc(NP2(=O)NCCCN2)cc1
→ 4	.	4.1	-14	4085	17	9
- COc1ccccc1[As](=O)(O)CC(O)COc1ccc(Cl)cc1Cl (stereo unspecified)
→ 6	-10	5.8	.	.	9	4
- COc1ccc(N(CC(=O)NCCC2=CCCCC2)S(C)(=O)=O)cc1OC
→ -1	-6	1.4	-14	22438*	-4	8
- Cc1ccc(CNC(=O)C2CCCN(S(=O)(=O)N3CC(C)CC(C)C3)C2)cc1 (stereo unspecified)
→ 2	7	0.1	-21	5548	12	6
- COC(=O)C1(Cc2cc(-c3ccccc3)no2)CCN(C(=O)OC(C)(C)C)CC1
→ .	6	.	-29	4008	.	.
- Clc1ccc(CON=C2CCCc3nonc32)c(Cl)c1
→ 30	.	1.0	.	.	4	5
- CCOC(=O)C1CCN(C(=O)c2ccc(N3CCOCC3)c([N+](=O)[O-])c2)CC1
→ 3	.	3.7	-8	3067	4	-5
- CN(C)C=Nc1ccc2nn(-c3ccccc3)nc2c1
→ 12	-5	1.1	-101	4477	9	1
- CC(C)(C)NCc1cc(Cl)ccc1OCc1cccs1
→ .	2	.	-3	2389	.	.
- O=c1nc(N/N=C/C=C/c2ccccc2)cn[nH]1
→ .	-14	.	8	5302	.	.
- O=C(CCNS(=O)(=O)c1cccc2nsnc12)NCc1ccccc1Cl
→ 5	4	4.1	-40	2232	1	1
- COc1cc(S(=O)(=O)N2CCCCCC2)c(OC)cc1Br
→ 1	-6	1.2	-18	3181	11	5
- COc1ccc(-c2nc3ccccc3c(=O)n2-c2nccs2)cc1
→ 1	-16	5.4	-38	9498	15	6
- CC(C(=O)Nc1ccc(S(=O)(=O)N2CCOCC2)cc1)N1C(=O)C2CC=CCC2C1=O (stereo unspecified)
→ 2	1	2.3	-10	4589	4	6
- O=C(NCc1n[nH]c(=S)n1-c1ccc(F)cc1)c1ccco1
→ 2	1	1.1	-17	9849	9	4
- Cc1ccc(C2=N/C(=C\c3ccc(OS(=O)(=O)c4ccc(C)cc4)cc3)C(=O)O2)cc1
→ -1	-3	-5.0	-13	2517	3	12
- O=C(Nc1ccc(N2CCCC2)cc1)c1ccc(Cl)cc1Cl
→ 3	3	10	-59	4003	4	-9
- O=C(CN1C(=O)CC(c2ccco2)Sc2ccccc21)Nc1ccccc1F (stereo unspecified)
→ 9	-4	2.2	-32	5725	6	1
- O=C(CC1C(=O)NCCN1Cc1ccc(Cl)c(F)c1)NC1CCCCC1 (stereo unspecified)
→ 5	5	0.0	-10	5642	4	5
- Cc1cccc(OCCCC(=O)Nc2ccc(S(N)(=O)=O)cc2)c1
→ 10	.	11	-14	4073	2	0
- Cn1c(=O)c2c(nc(N/N=C/c3ccco3)n2C)n(C)c1=O
→ .	-1	.	-13	4537	.	.
- COc1cccc(C(=O)N(Cc2nc(-c3ccc(C)cc3)no2)C(C)C)c1
→ 25	-7	2.7	-6	23492*	6	5

(listing goes on)
Every second line gives: Sa ugtP lethal	BJeLR viability	Sa RN4220 lethal	PrP UTR inh	Autofluor counter	Mtb hypoxia rep	Mtb hypoxia rep growth
- Cc1ccc(N2C(=O)C3CCCN3C2=S)cc1 (stereo unspecified)
→ -5	-8	-0.2	-10	4034	3	-7
- Cn1nc(OCc2ccccc2)ccc1=O
→ -8	6	-0.6	-24	9079	3	6
- CC(=O)NC(=O)c1cnn(-c2ccccc2)c1N
→ 2	0	0.9	-17	4925	-11	-6
- COc1ccc(Nc2nnc(SCC(=O)c3cc4ccccc4o3)s2)cc1
→ 1	8	6.8	-44	4421	1	-1
- O=C(N/N=C/c1ccccn1)c1cccc([N+](=O)[O-])c1
→ .	2	.	-6	3369	.	.
- Cc1cccc(Nc2nnc(-c3ccc(N4CCOCC4)c([N+](=O)[O-])c3)c3ccccc23)c1
→ 2	3	-1.9	-29	2335	1	-7
- O=C(COc1ccc2c3c(c(=O)oc2c1)CCC3)Nc1ccccn1
→ -10	9	5.7	-42	4055	-6	0
- Cc1ccn2cc(-c3ccc(NC(=O)c4ccco4)cc3)nc2c1
→ -15	6	2.8	-141	2456	9	0
- CCC(CC)c1nnc(NC(=O)c2cc([N+](=O)[O-])ccc2N2CCOCC2)s1
→ -4	.	3.1	-21	2982	0	0
- COc1ccc(N(CC(=O)NC(C)C)C(=O)CCC(=O)Nc2ccccn2)cc1
→ 8	-8	-1.2	-18	3781	-1	-3
- COC(=O)[C@]1(Cc2ccccc2)N[C@H](CN(C)C(=O)Nc2ccccc2)[C@@H]2C(=O)N(C)C(=O)[C@@H]21
→ 7	.	3.0	-14	3607	3	1
- CCN1CCN(C(=O)c2ccc(Cl)c(S(=O)(=O)N3CCCCCC3)c2)CC1
→ 6	10	4.3	-12	4575	7	5
- COc1ccc(N2CC(C(=O)NNC(=O)c3ccc(Br)cc3)CC2=O)c(OC)c1 (stereo unspecified)
→ 6	-1	4.3	-15	7353	9	-4
- O=C(CCCN1C(=O)/C(=C/c2ccccc2)SC1=S)NCCCn1ccnc1
→ 3	2	1.4	-2	4141	-1	3
- Fc1ccc(-c2c[nH]c(=S)n2Cc2ccccc2)cc1
→ 0	-2	0.8	-16	4348	-9	1
- CC1(C)Cc2c(c(N3CCOCC3)nc3sc(C(=O)Nc4cccc(Cl)c4)c(N)c23)CO1
→ 5	38	-2.2	13	4795	1	-1
- Cc1cc(=O)oc2cc(Oc3ccc(C(N)=O)cc3[N+](=O)[O-])ccc12
→ 8	4	4.2	-24	4554	13	3
- CCOC(=O)N1CCN(S(=O)(=O)c2cc(Br)cnc2N)CC1
→ -2	-2	-11	-24	3258	1	6
- CCOC(=O)[C@@H]1[C@H]2COc3cc(OC)ccc3[C@H]2N2C(=O)N(c3ccc(F)cc3)C(=O)[C@@]12C
→ .	2	.	-12	3332	.	.
- CC(=O)Nc1ccc(S(=O)(=O)Nc2c(NC3CCCCC3)c3ccccc3oc2=O)cc1
→ 1	-13	1.5	-3	5764	2	-8
- COC(C[C@@H](O)[C@H](C)[C@H](O)COCc1ccccc1)OC
→ .	-11	.	-17	4259	.	.
- CCc1ccc(-c2nc(CN3CCC(C(=O)NCc4ccccc4OC)CC3)c(C)o2)cc1
→ -20	-2	-3.5	4	25156*	-12	12
- CCOc1ccc(Oc2nc(N(CC)CC)nc(N3CCOCC3)n2)nn1
→ 2	-9	4.5	-4	4254	7	5
- CC(=O)c1sc(NC(=O)c2cnc(Cl)c(Cl)c2)nc1C
→ 11	-12	12	-139	5596	-10	3
